# Source: PubChem (Broad Institute)
# MITF inhib – inhibitors of MITF, primary screen, MITF inhibitor project, cell-based, luminescence | hit rate 0.28% among 37,000 | inhibition, % (test concentration not listed) | TRPM1 promoter luciferase, 24 h;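 active = most replicates at 85% or more, or half of them and the mean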;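 note: human melanocyte line stably carrying TRPM1 promoter luciferase reporter; 0% = vehicle wells and 100% = a positive control; the first replicate is given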
# YB-1 expression – inhibitors of YB-1 gene expression, primary screen, cell-based, fluorescence. U2OS, qRT-PCR YB-1 vs CDIP delta delta Cp, 16 h; active compounds read high; zero = DMSO, each unit about twofold. delta delta Cp (YB-1 minus CDIP) (test concentration not listed). hit rate 0.37% among 30,000;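 active = delta delta Cp rounded down to an integer at or above 3, about 3 SD of DMSO wells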;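 note: higher means less YB-1 transcript or more CDIP transcript relative to DMSO; stock transfer was 100 nL into about 100 µL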
# PD-1 reversal – activators reversing PD-1 mediated T-cell inhibition, primary screen, luminescence, primary human CD4 T cells, PD-L1 beads | activation, % (test concentration not listed) | AID 2316, 2010 | CellTiter-Glo 96 h | 29,000 tested, under 10 active;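 active = replicate mean of 50% or more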;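 note: 0% = median vehicle wells and 100% = positive control; 100 nL library stock added to about 50 µL; numbers are from one replicate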
# Shh pathway inh – Hedgehog pathway signaling inhibitors, primary screen, luminescence, Shh-LIGHT2 cells, Gli-luciferase; hit rate 2.1% among 22,000; Shh-LIGHT2 Gli-luciferase reporter, 30 h; inhibition, % (concentration not given with the values);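 active = replicate mean of 65% or more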;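 note: pathway switched on by Shh-conditioned medium diluted 1 in 25 in low serum; 100 nL library stock added to about 40 µL; 0% = median of neutral wells and 100% = positive control level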
# * marks the source's active call; other numbers are inactive results; / = no result given. This is a subset; rates above refer to the full screens.
entry	mol	MITF inhib	YB-1 expression	PD-1 reversal	Shh pathway inh
1	NC(=O)c1ccc(-c2nc(-c3ccc4c(c3)OCO4)c(-c3ccccn3)[nH]2)cc1	-18.8	0.133	/	32.1
2	CN1CCN(CCCN2c3ccccc3Sc3ccc(S(=O)(=O)N(C)C)cc32)CC1	5.5	-0.134	/	13.2
3	COc1cc(-c2oc3cc(O)cc(O)c3c(=O)c2OC2OC(CO[C@@H]3O[C@@H](C)[C@H](O)[C@@H](O)[C@H]3O)C(O)C(O)C2O)ccc1O (stereo not given in full)	/	0.353	/	-21.8
4	C[C@@H]1O[C@@H](OC[C@H]2O[C@@H](Oc3cc(O)c4c(c3)OC(c3ccc(O)cc3)CC4=O)[C@H](O)[C@@H](O)[C@@H]2O)[C@H](O)[C@H](O)[C@H]1O (stereo not given in full)	-10.3	-0.281	0.5	9.8
5	CN1CCC(=C2c3ccccc3CC(=O)c3sccc32)CC1	-5.2	0.446	/	46.2
6	Cc1oncc1C(=O)Nc1ccc(C(F)(F)F)cc1	16.0	0.67	/	-225.8
7	CN(C)CCC[C@@]1(c2ccc(F)cc2)OCc2cc(C#N)ccc21	3.3	-0.315	/	-6.5
8	CCCCOC(=O)c1ccc(N)cc1	-80.1	-0.0172	/	-162.5
9	CN=C(NC#N)Nc1ccc(C2=NNC(=O)CC2C)cc1 (stereo not given)	-2.2	0.183	10.9	27.9
10	COc1cc(-c2oc3cc(O)cc(O)c3c(=O)c2O[C@@H]2O[C@H](CO[C@@H]3O[C@@H](C)[C@H](O)[C@@H](O)[C@H]3O)[C@H](O)[C@H](O)[C@H]2O)ccc1O	/	0.0897	/	-25.7
11	OCC(O)CN1CCN(c2ccccc2)CC1 (stereo not given)	-4.6	0.0274	/	12.2
12	CCCN(CCC)C(=O)C(CCC(=O)O)NC(=O)c1ccccc1 (stereo not given)	-40.4	-0.394	/	-11.0
13	CN(C)CCOC(=O)C(c1ccccc1)C1(O)CCCC1 (stereo not given)	-22.6	-0.124	/	6.0
14	COC(=O)C1=CO[C@@H](O[C@@H]2O[C@H](CO)[C@@H](O)[C@H](O)[C@H]2O)C2C1CC(O)C2C (stereo not given in full)	2.5	-0.218	2.9	-22.2
15	COC(=O)Nc1nc2ccc(S(=O)c3ccccc3)cc2[nH]1 (stereo not given)	27.1	0.133	/	-62.2
16	CCN(CC)CCOC(=O)C(c1ccccc1)c1ccccc1	-22.7	0.0265	/	-2.5
17	NC(=O)NC(=O)Cc1ccccc1	-10.8	-0.19	/	3.4
18	CCC(Cc1c(I)cc(I)c(N)c1I)C(=O)O (stereo not given)	-11.3	0.333	/	-32.7
19	CCCCc1c(-c2ccc(OC)cc2)[nH]c2nccnc12	-3.4	0.0428	-28.1	-26.2
20	CC[C@]12CCCN3CCc4c(n(c5ccccc45)[C@@](O)(C(=O)OC)C1)[C@@H]32	1.3	-0.184	/	29.4
21	Cc1cc(O)c2c(c1)C(=O)c1cccc(O)c1C2=O	-0.5	-0.0934	/	27.5
22	Cc1ccc(C(=O)C(C)CN2CCCCC2)cc1 (stereo not given)	4.7	-0.00226	/	-12.7
23	CCOC(=O)Nc1ccc2c(c1)N(C(=O)CCN1CCOCC1)c1ccccc1S2	7.8	0.202	/	-20.4
24	C#C[C@]1(O)CC[C@H]2[C@@H]3CCC4=CC(=O)CC[C@@H]4[C@H]3CC[C@@]21CC	-0.9	-0.25	/	-28.1
25	COc1cc(C)nc(-n2nc(C)cc2OC)n1	-0.1	0.242	/	1.8
26	O=C(c1ccccc1)c1ccc2n1CCC2C(=O)O (stereo not given)	-5.4	0.0661	4.0	-40.9

# Part of the list above, with values under each structure.
# Order of results: MITF inhib | YB-1 expression | PD-1 reversal | Shh pathway inh
15	COC(=O)Nc1nc2ccc(S(=O)c3ccccc3)cc2[nH]1 (stereo not given)
→ 27.1 | 0.133 | / | -62.2
16	CCN(CC)CCOC(=O)C(c1ccccc1)c1ccccc1
→ -22.7 | 0.0265 | / | -2.5
17	NC(=O)NC(=O)Cc1ccccc1
→ -10.8 | -0.19 | / | 3.4
18	CCC(Cc1c(I)cc(I)c(N)c1I)C(=O)O (stereo not given)
→ -11.3 | 0.333 | / | -32.7
19	CCCCc1c(-c2ccc(OC)cc2)[nH]c2nccnc12
→ -3.4 | 0.0428 | -28.1 | -26.2
20	CC[C@]12CCCN3CCc4c(n(c5ccccc45)[C@@](O)(C(=O)OC)C1)[C@@H]32
→ 1.3 | -0.184 | / | 29.4
21	Cc1cc(O)c2c(c1)C(=O)c1cccc(O)c1C2=O
→ -0.5 | -0.0934 | / | 27.5
22	Cc1ccc(C(=O)C(C)CN2CCCCC2)cc1 (stereo not given)
→ 4.7 | -0.00226 | / | -12.7
23	CCOC(=O)Nc1ccc2c(c1)N(C(=O)CCN1CCOCC1)c1ccccc1S2
→ 7.8 | 0.202 | / | -20.4
24	C#C[C@]1(O)CC[C@H]2[C@@H]3CCC4=CC(=O)CC[C@@H]4[C@H]3CC[C@@]21CC
→ -0.9 | -0.25 | / | -28.1
25	COc1cc(C)nc(-n2nc(C)cc2OC)n1
→ -0.1 | 0.242 | / | 1.8
26	O=C(c1ccccc1)c1ccc2n1CCC2C(=O)O (stereo not given)
→ -5.4 | 0.0661 | 4.0 | -40.9
